H5N1 antiviral – MDCK cell protection from H5N1 avian flu | inhibition, % at 50 µM | AID 740, 2007 | actives 0.07% (n = 96,000) | cytopathic effect, luminescence, 72 h; hits give high values; no value below 0 was filed and about half of the inactive calls have no number; reference of the scale not given here; in the data active = inhibition above about 25%
* hit, by the source's call; i = inactive.

The first two entries, ahead of the listing:
SMILES	H5N1 antiviral
O=C(C(c1ccccc1)c1ccccc1)N(Cc1ccco1)C1CCS(=O)(=O)C1 (configuration not stated)	2.4
CCCn1c(NC(=O)c2ccc(C)cc2)nc2ccccc21	i

The list itself, previewed entries included:
SMILES	H5N1 antiviral
O=C(C(c1ccccc1)c1ccccc1)N(Cc1ccco1)C1CCS(=O)(=O)C1 (configuration not stated)	2.4
CCCn1c(NC(=O)c2ccc(C)cc2)nc2ccccc21	i
N=c1oc2ccc3ccccc3c2cc1-c1nnc2n1CCCCC2	1.5
COc1ccc(N2C3=C(CC4=C2CC(C)(C)CC4=O)C(=O)CC(C)(C)C3)cc1	i
O=C(OCc1ccccc1)C1=[N+]([O-])OC(C(=O)OCc2ccccc2)C1c1c[nH]c2ccccc12 (configuration not stated)	0.4
Cc1ccc(CC23CN4CCN(CC(C4)C2O)C3)c(C)c1 (configuration not stated)	i
CCN(CC)c1ccc(C2C(C(=O)OCCOC)=C(C)NC3=C2C(=O)CC(C)(C)C3)cc1 (configuration not stated)	i
CCCCn1nnnc1SCC(=O)N(CC)CC	0.7
Cc1ccc2nc(/C(C#N)=C\c3ccc(OC(=O)c4cccs4)cc3)[nH]c2c1	i
COc1ccc(C(C)n2c(C)c3c(C)nnc(C)c3c2C)cc1 (configuration not stated)	2.4

Four structures already listed, ordered by length of the SMILES, low to high.
SMILES	H5N1 antiviral
CCCn1c(NC(=O)c2ccc(C)cc2)nc2ccccc21	i
COc1ccc(C(C)n2c(C)c3c(C)nnc(C)c3c2C)cc1 (configuration not stated)	2.4
Cc1ccc2nc(/C(C#N)=C\c3ccc(OC(=O)c4cccs4)cc3)[nH]c2c1	i
COc1ccc(N2C3=C(CC4=C2CC(C)(C)CC4=O)C(=O)CC(C)(C)C3)cc1	i

Other results
SMILES	H5N1 antiviral
CCOc1ccc(NC(=O)CCN2CCN(c3ccccc3F)CC2)cc1	i
COc1ccc(/C=C/C(=O)NCc2cn(C)nc2C)cc1COc1ccc(Br)cc1	i
Cc1ccc(Cn2ccc(=O)c(OCc3ccccc3)c2C)cc1	1.0
Cc1cccc(-c2nc(NCCCN3CCOCC3)c3ccccc3n2)c1	i
CCOC(=O)C1CCCN(C(=O)CN2CCN(Cc3ccc(Cl)cc3)C2=O)C1 (configuration not stated)	i
COCCn1cc(C(=O)NCc2cccs2)c2c3ccccc3n(C)c2c1=O	1.7
O=C(Nc1ccncc1)C1(c2ccccc2)CCCC1	1.2
COc1cccc(N(CC(=O)Nc2cccc(F)c2)S(C)(=O)=O)c1	2.4
CCOC(=O)N1CCN(C(=O)C2CC(=O)N(c3ccc(OC)cc3)C2c2ccc(OC)cc2)CC1 (configuration not stated)	i
CCOC(=O)c1cc(NC(=O)c2ccc(Cl)cc2)c(=O)n2c1oc1ccc(Cl)cc12	0.7
COc1cc(C)nc(N2CCCC(C(=O)Nc3cccc(Cl)c3C)C2)n1 (configuration not stated)	i
O=C(NCCO)C1(c2ccc(Cl)cc2)CCCC1	i
COc1ccc2oc(-c3ccccc3)c(C(=O)N3CCOCC3)c2c1	3.1
O=c1c2ccccc2nc(-c2ccco2)n1/N=C/c1ccco1	0.1
O=P(O)(CCc1ccncc1)CN1CCCCC1	i
O=C(Nc1ccc(Cl)c(C(F)(F)F)c1)C1CCCN(S(=O)(=O)c2cnc[nH]2)C1 (configuration not stated)	1.5
Cc1ccc(C(=O)Nc2ccccc2-c2ccccc2)o1	i
Cc1cc2ccccn2c1C(=O)c1ccc(Cl)cc1	0.1
CCC(C)(C)n1nnnc1C(c1ccc2ncccc2c1)N1CCN(c2nc3ccccc3s2)CC1 (configuration not stated)	i
Cc1cc(C)n(-c2ncnc3sc4c(c23)CCCC4)n1	0.2
N#Cc1c(N2CCCC2)nc(N)c2c(N)nc(N3CCCC3)cc12	i
Cc1sc2nc(C(C)C)oc(=O)c2c1C	0.8
CCOC(=O)C1CCN(C/C=C/c2ccccc2OC)CC1	i
c1ccc(SCCc2ccncc2)cc1	0.7
Cn1c(=O)c(=O)n(C)c2cc(S(=O)(=O)Nc3ccc4c(c3)OCCO4)ccc21	3.6
COC(=O)c1c(N)sc2c1CCN(c1ncc(C(F)(F)F)cc1Cl)C2	1.4
COC(=O)c1ccc(COc2ccccc2/C=N/NS(=O)(=O)c2ccc(C)cc2)cc1	0.7
CC(Oc1ccc(Cl)cc1)C(=O)/C=C/N(C)C (configuration not stated)	i
CC(=O)Nc1cc(-c2nn(C)c(=O)c3ccccc23)ccc1N1CCOCC1	0.3
CCN1CCN(CC(=O)c2c[nH]c3ccc(C)cc23)CC1	i

Rewritten as labelled records: part of the list above
> COc1ccc(C(C)n2c(C)c3c(C)nnc(C)c3c2C)cc1 (configuration not stated)
- H5N1 antiviral: 2.4
> COC(=O)c1c(N)sc2c1CCN(c1ncc(C(F)(F)F)cc1Cl)C2
- H5N1 antiviral: 1.4
> N#Cc1c(N2CCCC2)nc(N)c2c(N)nc(N3CCCC3)cc12
- H5N1 antiviral: i
> COCCn1cc(C(=O)NCc2cccs2)c2c3ccccc3n(C)c2c1=O
- H5N1 antiviral: 1.7

(continued)
SMILES	H5N1 antiviral
COCCNC(=O)C(C)OC(=O)c1nsc(Cl)c1Cl (configuration not stated)	0.5
CCN(CC)C(=O)C(Cc1ccccc1)N1C(=O)c2ccccc2C1=O (configuration not stated)	i
c1cc(-c2noc(CCC3CCCC3)n2)ccn1	i
O=c1[nH]c(=O)n(CCC2=CCCCC2)c(O)c1C=NCCCn1ccnc1	0.4
CC(C)Cn1c(N)c(C(=O)COC(=O)C2=COCCO2)c(=O)n(C)c1=O	i
Cc1nn(C)c(C)c1S(=O)(=O)N(CC(=O)Nc1ccc2c(c1)OCO2)c1ccc(C(C)C)cc1	i
COc1ccc(-c2csc(N3CCC(C(N)=O)(N4CCCCC4)CC3)n2)cc1	0.4
CCOC(=O)C1CCN(C(=O)COc2ccc(N(C)S(=O)(=O)c3cccs3)cc2)CC1	0.3
CCC(C#CCN1CCOCC1)(CC)OCCC#N	i
Cc1cccc(-c2nc(=S)c3c(n2Cc2ccco2)CCCC3)c1	0.2
c1ccc(Nc2nc(N3CCCCC3)nc(N3CCCCC3)n2)cc1	i
O=C(N1CCOCC1)N1CCN(c2ccccn2)CC1	i
CCc1c(C)n([O-])c2c([n+]1=O)CCC2	0.9
Cc1cc(=O)oc(C)c1C(=O)Nc1c(C)n(C)n(-c2ccccc2)c1=O	1.8
CCn1c(SCC(=O)Nc2ccc3c(c2)OCO3)nc2c(c1=O)SC(C)C2 (configuration not stated)	1.4
COc1ccc(C(=O)Nc2cccc(C(C)=O)c2)cc1S(=O)(=O)N1CCOCC1	1.9
O=c1nc2ccccc2c(NS(=O)(=O)c2ccc(Cl)cc2)n1-c1ccccc1	i
CCC(c1nnnn1Cc1ccco1)N(CCN1CCOCC1)Cc1cc2cc(C)ccc2[nH]c1=O (configuration not stated)	1.1
COc1ccc(OC)c(NC(=O)C2CCN(c3ncccn3)CC2)c1	i
COc1ccc(C(O)C(CN2CCOCC2)c2ccccc2)cc1F (configuration not stated)	1.4
Cc1noc(C)c1CSc1nc2ccccc2c(=O)n1-c1ccc(Cl)cc1	0.5
Cc1ccc(S(=O)(=O)N2CCC(C(=O)N[C@@H](C)C(=O)NCc3ccccc3)CC2)cc1	i
CCCCn1ccnc1C(=O)c1ccc(S(=O)(=O)N(CCOC)CCOC)cc1	i
CCC(C)N1C(=O)CCC1C(=O)NCc1ccc2c(c1)OCO2 (configuration not stated)	1.4
Cc1cccc(-n2c(-c3ccco3)nc3nc4ccccc4nc32)c1	0.2
Cc1ccc(S(=O)(=O)NC(c2ccccc2)C(C)C(=O)n2nc(C)cc2C)cc1 (configuration not stated)	i
CC(C)CNC(=O)C1CCCN(S(=O)(=O)c2ccc(-n3cnnn3)cc2)C1 (configuration not stated)	i
CCOc1ccc(C(=O)NCCn2cc(SCC(=O)Nc3cc(C)on3)c3ccccc32)cc1	i
N#C/C(Cn1c[n+](NC(=O)Nc2ccccc2)cn1)=N/O	0.2
CC1CN(CC(O)COc2ccccc2C(C)(C)C)CC(C)O1 (configuration not stated)	i
COc1ccc(OC)c(NC(=O)c2ccc(NS(C)(=O)=O)cc2)c1	i
CCN1c2ccccc2NC2N=C(OC)C(c3ccccc3)C21 (configuration not stated)	i
NC(=O)c1nn(-c2ccccc2)nc1NC(=O)CN1CCCCC1	1.3
COc1ccc2cc3cc(C(=O)Nc4ccc5c(c4)OCO5)oc3nc2c1	1.6
O=C(CSc1nnnn1-c1ccccc1)Nc1ccc(Cl)cn1	0.5
CCOC(=O)c1sc(SCC(=O)Nc2ccc(N(C)C)cc2)nc1N	i
O=C(Cn1cnc2c(oc3ccccc32)c1=O)N1CCCc2ccccc21	i
CCOC(=O)C1(C)/C(=N/Nc2ccccc2Cl)C(=O)C(=O)N1c1ccccc1 (configuration not stated)	0.5
Cc1cccc(NC(=O)c2cccc(Cn3cc(Br)c([N+](=O)[O-])n3)c2)c1C	i
C=CCn1c(COc2cccc3ccc(C)nc23)nnc1SCC(N)=O	0.9
CCOC(=O)CSc1nc(NC#N)nc(N(CC)CC)n1	i
O=C1Cc2ccccc2C(c2ccccc2)N1 (configuration not stated)	0.1
Cc1ccc(N2C(=O)NC(=O)C3(Cc4ccccc4N4CCN(c5ccccc5)CC43)C2=O)cc1 (configuration not stated)	i
CCOc1ccc(C(=O)Nc2ccc3c(c2)OCO3)cc1OCC	0.1
COc1cccc(-c2cc(C(=O)N3CC4(C)CC3CC(C)(C)C4)no2)c1 (configuration not stated)	i
COc1ccc(N/C=C/C(=O)c2sc(-c3ccccc3)nc2C)cc1	i
O=C(COC(=O)c1cccnc1)Nc1ccc(F)cc1	i
O=C(CC(c1ccc(F)cc1)c1ccco1)N1CCCC1 (configuration not stated)	0.1
CCOc1ccc(CC(=O)C2C(=O)CCCC2=O)cc1OCC	i
COc1ccc(C(=O)NCc2c(CC(C)C)oc(C)c2C(=O)O)cc1	i
Next entries follow.
SMILES	H5N1 antiviral
c1ccc(-c2n[nH]nc2-c2ccccc2)cc1	2.8
CC(C(=O)O)N1C(=O)/C(=C/C=C/c2ccco2)SC1=S (configuration not stated)	0.7
COC(=O)c1c(NS(C)(=O)=O)sc2c1CCCC2	i
CCC(C)Sc1nc2c(c(=O)n1C)SC(C)C2 (configuration not stated)	0.8
Cc1[nH]c(=O)[nH]c(=O)c1S(=O)(=O)N(C)Cc1ccccc1	0.8
O=C1CC(c2ccccc2F)c2cc3c(cc2N1)CCC3 (configuration not stated)	0.6
CCN(CC)c1ccc(NC(=O)CC2Oc3ccccc3NC2=O)c(C)c1 (configuration not stated)	i
COc1cc(/C=C(/C#N)c2nc3ccccc3[nH]2)ccc1OC(=O)c1ccco1	i
O=C1C(=Cc2cccn2-c2ccc(O)cc2)C(=O)c2ccccc21	i
CCCCCC(=O)Nc1ccc(S(=O)(=O)Nc2nccnc2OC)cc1	0.3
Cc1cc(Nc2ccc(F)cc2C)n2ncnc2n1	0.8
O=c1cc(CO)oc(CN2CCCC2)c1O	i
CN(c1ccccc1C(=O)NCc1ccco1)S(C)(=O)=O	i
CCN1CCn2c3c(c4cc(C)ccc42)CCCC31 (configuration not stated)	i
c1csc(-c2nn3c(Cn4nnc5ccccc54)nnc3s2)c1	5.6
COc1ccc(-c2nnc(SCC(=O)c3cc(C)n(Cc4cccs4)c3C)o2)cc1	i
Cc1ccc(S(=O)(=O)N2C(=O)C(c3ccccc3)SC2=Nc2ccccc2)cc1 (configuration not stated)	0.6
COc1ccccc1OCCC(=O)OCCN1C(=O)c2ccccc2C1=O	0.6
O=C(c1ccc2c(c1)OCO2)N1CCN(c2ccc(Cl)cc2)CC1	0.1
O=C(CSc1nc(-c2ccc(F)cc2)cs1)N1CCN(C(=O)c2ccco2)CC1	i

The list goes on, overlapping the part above by 4 compounds.
SMILES	H5N1 antiviral
Cc1ccc(S(=O)(=O)N2C(=O)C(c3ccccc3)SC2=Nc2ccccc2)cc1 (configuration not stated)	0.6
COc1ccccc1OCCC(=O)OCCN1C(=O)c2ccccc2C1=O	0.6
O=C(c1ccc2c(c1)OCO2)N1CCN(c2ccc(Cl)cc2)CC1	0.1
O=C(CSc1nc(-c2ccc(F)cc2)cs1)N1CCN(C(=O)c2ccco2)CC1	i
COc1cc(CNc2ccc3[nH]c(=O)[nH]c3c2)cc(Cl)c1OCC(=O)NC(C)(C)C	i
CCn1nc(CC(=O)Nc2ccc(-n3cnnn3)c(C)c2)c2ccccc2c1=O	0.2
N/C(=N\OC(=O)CCCOc1ccccc1)c1ccc(Br)cc1	i
CC(=O)Nc1nc(C)c(C(C)=O)s1	1.6
COc1ccc(N2CCN(C(CNC(=O)c3ccco3)c3cccnc3)CC2)cc1 (configuration not stated)	i
COc1ccc(-n2c(Cc3cccn3C)nnc2SCC(=O)Nc2ccc(F)cc2F)cc1	i
C=CCCC(=O)Nc1nc(C)c(-c2csc(Nc3cc(Cl)ccc3OC)n2)s1	i
COc1ccc2cc3cc(C(=O)NCCN4CCN(c5ccccc5F)CC4)oc3nc2c1	0.8
CCOC(=O)C1=C(CC)Nc2ccccc2N=C1NC(=O)Cn1cnc2ccccc2c1=O	i
Cc1cc(C)cc(Nc2ccc([N+](=O)[O-])nc2[N+](=O)[O-])c1	i
O=C(N/N=C1\CCCc2ccccc21)C(O)c1ccccc1 (configuration not stated)	i
CCN(CCCNC(=O)CCCn1c(=O)[nH]c2ccccc2c1=O)c1cccc(C)c1	i
CC(=O)N1C(=O)C2(Nc3ccccc3N2)c2ccccc21	i
Cc1cnc(C(=O)OCC(=O)NC23CC4CC(CC(C4)C2)C3)cn1	0.2
Cc1ccc(/C=N\n2c(-c3ccccc3)n[nH]c2=S)s1	0.9
Cc1nn(-c2ccccc2)c2sc(C(=O)OC3CCOC3=O)cc12 (configuration not stated)	i
COc1cccc(N2CCN(C(=O)CN(c3ccc(C)cc3)S(=O)(=O)c3c(C)n[nH]c3C)CC2)c1	i
c1cc2c3c(cccc3c1)NC1(CCCCCC1)N2	i
Cc1ccc(S(=O)(=O)N2CCN(C(=O)N(c3ccccc3)c3ccccc3)CC2)cc1	0.6
Cn1c(=O)c2c(O)cc(=O)[nH]c2n(-c2ccccc2)c1=O	0.4
O=C1CCC(=O)N1CN(Cc1ccco1)CN1C(=O)CCC1=O	0.1
O=C(NC(NCC1CCCO1)C(Cl)(Cl)Cl)c1cccc2ccccc12 (configuration not stated)	0.1
Oc1cccc2ccc(Nc3ccccn3)nc12	i

High-throughput results as filed in PubChem BioAssay.

An excerpt; rates above refer to the full screens.
